Source: PubChem (National Center for Advancing Translational Sciences (NCATS))
CtBP-E1A blk – inhibitors of CtBP/E1A interaction. AlphaScreen GST-E1A/His-CtBP binding, 1536-well; stronger effect = lower value; control for the full effect not named in the record. activity change, % (test concentration not listed). 340,000 compounds, 0.49% hits; in the data active means activity change below about -65%; inconclusive means about -30% to -65%; inactive means above about -30%; also: % is scaled to controls: 0 for no effect and ±100 for the full control effect
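Steps: dispense buffer (Tris pH 8.0, NaCl 300 mM, TCEP 1 mM, BSA, Tween 20); add 5X protein mix (GST-E1A, His-CtBP, 125 nM each); pin 23 nL compound; 2 h at 37 °C, dark; add 5X beads (50 ug/mL); 1 h; read.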
TRPML1 ag – agonists of human TRPML1 channel; AID 624414; activation, % (test concentration not listed); Q9GZU1; 410,000 compounds, 0.12% hits; TRPML1-expressing cells, Ca2+ dye fluorescence, FDSS; host cell line not named in the record; reference of the full effect not given here; in the data active = activation above about 50%; inconclusive = about 30% to 50%; inactive = below about 30%; also: 0% is about no effect; the text of the record puts the active cut at 80%
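Cells: TRPML1-DL, 1X Tet inducer, ~16 h at 37 degrees C/5% CO2. Dye: ABD Ca8 no-wash + quencher, 45-90 min RT. Read: 10 s baseline, compound add, 110 s agonist phase; 54-4 EC80 (4uM final), 110 s antagonist phase.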
D2 potentiator – positive allosteric modulators of human D2 dopamine receptor | P14416 | DiscoveRx D2 beta-arrestin cells, luminescence, 90 min; 100% = 57 uM dopamine signal | potentiation, % (no concentration beside the values) | 360,000 compounds, 0.23% hits; active = potentiation of 50% or more; inconclusive = 30% to 50%; inactive = 30% or less;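 also: compound concentration not given in the record; tested on top of an EC20 dose of dopamine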
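PathHunter D2 cells, attached overnight at 37 deg C, received compound in DMSO plus dopamine at EC20 (50 nM final) for 90 min at 37 deg C. Beta-arrestin recruitment was read as luminescence after 1 h with detection reagent at ambient temperature.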
Six1-Eya2 inh – blocks human Six1 binding to Eya2. Q15475+O00167. AlphaScreen GST-Six1/His-Eya2 binding, biochemical; stronger effect = lower value; control for the full effect not named in the record. activity change, % (no concentration beside the values). 360,000 compounds, 0.56% hits. AID 651725; in the data active = activity change below about -65%; inconclusive = about -30% to -65%; inactive = above about -30%; also: % is scaled to controls: 0 for no effect and ±100 for the full control effect
Target sequence (O00167 whole entry, looked up): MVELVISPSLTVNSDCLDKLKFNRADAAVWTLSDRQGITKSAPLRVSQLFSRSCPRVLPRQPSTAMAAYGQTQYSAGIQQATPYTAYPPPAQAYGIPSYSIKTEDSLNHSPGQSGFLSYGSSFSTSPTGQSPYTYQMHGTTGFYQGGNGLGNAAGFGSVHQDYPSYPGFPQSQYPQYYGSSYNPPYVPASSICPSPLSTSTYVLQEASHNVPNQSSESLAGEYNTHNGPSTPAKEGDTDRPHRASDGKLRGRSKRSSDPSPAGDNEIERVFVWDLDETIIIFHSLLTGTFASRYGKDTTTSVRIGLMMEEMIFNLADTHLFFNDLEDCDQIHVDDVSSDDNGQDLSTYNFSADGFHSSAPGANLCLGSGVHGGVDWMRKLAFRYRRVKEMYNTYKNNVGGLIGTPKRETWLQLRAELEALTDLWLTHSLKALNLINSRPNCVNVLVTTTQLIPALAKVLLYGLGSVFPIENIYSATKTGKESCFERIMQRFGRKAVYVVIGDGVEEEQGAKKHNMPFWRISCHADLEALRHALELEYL
Target sequence (Q15475 whole entry, looked up): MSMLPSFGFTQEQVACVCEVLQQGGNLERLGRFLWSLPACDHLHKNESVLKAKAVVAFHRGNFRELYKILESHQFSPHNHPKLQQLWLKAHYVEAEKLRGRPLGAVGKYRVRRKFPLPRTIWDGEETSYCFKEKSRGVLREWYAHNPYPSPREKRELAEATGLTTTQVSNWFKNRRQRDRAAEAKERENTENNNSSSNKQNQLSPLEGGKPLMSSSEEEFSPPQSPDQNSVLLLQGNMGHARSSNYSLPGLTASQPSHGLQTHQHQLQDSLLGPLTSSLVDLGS
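Six1/Eya2 binding was read as AlphaScreen signal after compounds were pinned into GST-Six1 plus His-tagged Eya2 (5X stock 250/500 nM) in pH 8.0 Tris/NaCl/TCEP buffer, beads added, then incubated 1 h, 37 C, dark.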
PINK1 expr mod – changes PINK1 expression; PINK1 immunofluorescence, high-content cytometry, 24 h; Potency, µM (highest dose often 76.6 µM), without a hit: top-dose activation (PINK1 increase), usual class: activators; 410,000 compounds, 0.2% hits; AID 624263; active = well fitted activation curve with a large enough effect; inconclusive = small, poorly fitted or top-dose-only effect; inactive = flat fitted curve, though single readings scatter; cell line not stated here;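 also: potency is read from the fitted curve at half-maximal effect; % of control where 0% means no effect; nearly all actives have a fitted effect of over 65% in size; a mitochondrial uncoupler was the plate control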
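Cells are seeded, rested 12 hours, then given compound at five concentrations or DMSO for 24 hours. After fixation, blocking and antibody staining, PINK1 amount and mitochondrial localization are scored; CCCP serves as control.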
D2 agonist – agonists of human D2 dopamine receptor (beta-arrestin); AID 624465; activation, % (no concentration beside the values); P14416; 360,000 compounds, 0.084% hits; DiscoveRx PathHunter D2 beta-arrestin, luminescence, 90 min; 100% = 57 uM dopamine signal; in the data active = activation above about 40%; inconclusive = about 15% to 40%; inactive = below about 15%; also: compound concentration not given in the record; the text of the record calls up to 30% inactive
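Agonist mode: compounds alone added to overnight-plated D2 PathHunter cells for 90 min at 37 C, with 57 uM final dopamine (EC100) defining full response. Beta-arrestin recruitment detected by chemiluminescent reagent, read after 1 h at ambient temperature.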
* marks the source's active call; other numbers are inactive results; ? = inconclusive; . = no result given; [ ] = dose if it differs, or a comment.

SMILES	CtBP-E1A blk	TRPML1 ag	D2 potentiator	Six1-Eya2 inh	PINK1 expr mod	D2 agonist
COC(=O)c1[nH]nc2c1C(=O)N(C1CCCCC1)C2=O	9	-0.1	-4	12	3.9%	-1.8
CCOC(=O)CCCCC(=O)c1[nH]c(=O)[nH]c1CSCCO	11	0.5	7	0	.	2.5
O=C1c2cccc3c([N+](=O)[O-])ccc(c23)C(=O)N1c1ccc(Cl)cn1	-4	4.2	0	-13	-0.6%[38.3 µM]	4.8
CS(=O)(=O)N(CCc1ccccc1)CC(=O)NCC1CCCO1 (stereo not drawn)	8	1.2	7	13	0.6%	-2.2
CCc1nn(C(CC)C(=O)NCc2cccc(OC)c2)c(=O)c2cc3occc3n12 (stereo not drawn)	1	2.3	3	0	0.2%	3.4
Cc1cc(-c2cccc([N+](=O)[O-])c2)nc2ccccc12	2	0.5	2	-5	7.1%	-3.1
COc1cc(C#Cc2c(-c3cncn3C)n(C)c3ccc(-c4ccc(OC)nc4)cc23)cc(OC)c1	-25	-0.6	-2	-1	1.1%	-1.0
CC1(C)C(C=C(Cl)Cl)C1C(=O)N(Cc1ccc(Cl)cc1)C1CCS(=O)(=O)C1 (stereo not drawn)	2	-0.3	-2	-4	-1.0%	-4.0
C/C(=N\O)c1ccc2c3c([nH]c2c1)CCCC3	-15	-0.4	-4	-17	2.0%	-0.6
CCCC(C)NC(=O)COC(=O)c1ccc(Cl)c(S(N)(=O)=O)c1 (stereo not drawn)	-1	0.2	-12	0	0.5%	-2.3
NC(=O)N/N=C\c1cc(Br)ccc1O	0	-0.7	-15	-18	-1.7%	-1.1
CC1CN(CCc2ccccc2)c2nc3c(c(=O)[nH]c(=O)n3C)n2C1 (stereo not drawn)	10	-0.4	12	-12	3.5%	-2.9
CCOC(=O)C1=C(C)N(C)C(=O)C1CC(=O)O (stereo not drawn)	3	0.2	-7	-7	-1.4%[38.3 µM]	0.2
CCOC(=O)C1=C(C)NC(SCC(=O)O)=NC1c1ccccc1 (stereo not drawn)	-2	0.1	10	-2	1.2%	-1.0
O=C(CCCOc1ccc(Cl)cc1Cl)Nc1ccncc1	-1	-0.3	12	5	.	-0.2
CC(=O)c1ccc(N2CCCCCC2)c(F)c1	8	2.1	-19	12	3.8%	6.2
O=C(c1[nH]c(C(F)(F)F)nc1-c1ccccc1)N1CCC(C(O)(c2ccccc2)c2ccccc2)CC1	22	2.3	6	6	1.2%	4.9
O=C(NC(=S)N1CCc2ccccc21)c1ccccc1Br	-6	0.9	2	-6	13%	-5.1
O=C(O)CCCn1c(=S)[nH]c2c(sc3ccc([N+](=O)[O-])cc32)c1=O	-6	1.0	-12	-10	0.0%	-1.2
COc1ccccc1N1C(=O)c2cccc3c(Cl)ccc(c23)C1=O	5	-1.4	-1	-12	11%	3.2
Cc1c(-n2c(SCC(=O)O)nnc2-c2ccccc2Cl)c(=O)n(-c2ccccc2)n1C	4	-0.5	-4	-2	0.9%	-3.3
Cc1ccc(C(=O)N2CCN(c3cccc(C)c3C)CC2)o1	-1	1.7	-2	-4	1.6%	-1.8
O=C(Nc1ccc(F)cc1)c1cc2cc(Cl)ccc2[nH]1	.	-0.6	-4	-1	2.8%	-0.5
COc1ccccc1C(CNC(=O)C1CCN(C(=O)Nc2ccccc2)CC1)N1CCCC1 (stereo not drawn)	-3	-0.1	-16	1	4.3%	-6.4
CCOc1c(Br)cc(C(N)=O)cc1OC	0	4.0	-16	2	-2.6%	-1.3
O=C(CN1C(=O)NC2(CCCCC2)C1=O)N1CCN(S(=O)(=O)/C=C/c2ccccc2)CC1	-11	0.4	0	9	0.8%	-3.8
NCc1cc2c3c(c1)CCCN3CCC2	?	1.6	-7	-13	0.6%	-3.3
CC(C)CCn1c(O)c(N=Nc2ccccn2)c2ccccc21	12	-0.2	-9	16	11%	-8.7
COc1ccc(CNC(=O)CCc2cc(OC)c(OC)c(OC)c2)cc1	.	-0.4	-3	1	-0.4%	3.8
O=C(O)c1cnn(-c2nc(-c3ccc(Cl)c(Cl)c3)cs2)c1C(F)(F)F	2	0.8	-6	1	0.4%	2.5
CC1CCCCC1NC(=O)CCn1c(=S)[nH]c2ccccc2c1=O (stereo not drawn)	2	0.5	-7	-2	6.1%	-6.5
CN(C)C(CNC(=O)c1cccc(S(=O)(=O)Nc2ccc(Br)cc2)c1)c1ccco1 (stereo not drawn)	-23	1.8	-1	-12	0.1%	-3.8
Cc1ccccc1NC(=S)NCC1CCN(C(C)c2ccccc2)C1 (stereo not drawn)	-8	-0.5	-21	0	1.1%	-4.5
COc1ccc(N(CC(=O)N/N=C(\C)c2ccccc2)S(=O)(=O)c2ccccc2)cc1	-4	.	-5	1	2.9%	1.2
O=C(CCNC(=O)C1CCN(S(=O)(=O)c2ccccc2)CC1)NCc1ccc(Cl)c(Cl)c1	.	3.2	-8	-3	1.6%	-0.2
Cc1ccccc1-c1nc(CS(=O)CC(=O)NCc2ccc3c(c2)OCO3)c(C)o1 (stereo not drawn)	.	-0.9	-18	-4	0.4%	1.4
Cc1cc(NC(=O)C2CCCCC2C(=O)O)ccc1NC(=O)c1ccccc1 (stereo not drawn)	1	-0.1	-16	4	0.3%	-4.0
Cc1cc(Nc2ccc(C)c(C)c2)n2nc(C)nc2n1	-2	0.0	4	-1	1.0%	1.1
CCN(CC(=O)Nc1ccc(NC(C)=O)cc1)C(=O)/C=C/c1c(C)nn(-c2ccc(F)cc2)c1Cl	-5	0.1	-15	-8	3.6%	2.5
NC(=Nc1ccc(Br)cc1)c1ccccc1	.	12	-5	4	-1.9%	-6.6
CC(=O)N1CCN(CC(=O)Nc2c(Cl)cccc2Cl)CC1	2	-0.1	-20	-3	-2.2%	-3.0
Cc1ccc(COC(=O)CN2C(=O)NC3(CCCC3)C2=O)cc1	.	-1.4	-1	0	0.0%	-2.9
COC(=O)/C=C\C(=O)Nc1cccc([N+](=O)[O-])c1	1	0.3	-37	4	-3.2%	-3.1
O=C(NCC(c1ccco1)N1CCc2ccccc2C1)c1ccc(Br)cc1 (stereo not drawn)	3	0.3	-27	-10	16%	-4.7
Cc1ccccc1N(CC(=O)N/N=C/c1ccc(N(C)C)cc1)C(=O)c1ccccc1	?	3.1	-13	?	0.4%	-0.4
CCC1(CC)C(=O)NC(=O)NC1=Nc1cccc(OC)c1	3	8.0	-1	-1	2.0%	-3.3
COC(=O)c1ccc(OCC(=O)Nc2ccccc2C(=O)NC2CC2)cc1	.	-0.1	11	20	1.6%	8.3
CCN(CC)C(=S)NC(=O)Cc1ccccc1	0	-0.2	-6	7	1.9%	-2.9

Brought forward from above: six compounds; new compounds follow.
SMILES	CtBP-E1A blk	TRPML1 ag	D2 potentiator	Six1-Eya2 inh	PINK1 expr mod	D2 agonist
COC(=O)/C=C\C(=O)Nc1cccc([N+](=O)[O-])c1	1	0.3	-37	4	-3.2%	-3.1
O=C(NCC(c1ccco1)N1CCc2ccccc2C1)c1ccc(Br)cc1 (stereo not drawn)	3	0.3	-27	-10	16%	-4.7
Cc1ccccc1N(CC(=O)N/N=C/c1ccc(N(C)C)cc1)C(=O)c1ccccc1	?	3.1	-13	?	0.4%	-0.4
CCC1(CC)C(=O)NC(=O)NC1=Nc1cccc(OC)c1	3	8.0	-1	-1	2.0%	-3.3
COC(=O)c1ccc(OCC(=O)Nc2ccccc2C(=O)NC2CC2)cc1	.	-0.1	11	20	1.6%	8.3
CCN(CC)C(=S)NC(=O)Cc1ccccc1	0	-0.2	-6	7	1.9%	-2.9
COCCNCCCOc1ccc(C(C)(C)c2ccccc2)cc1	-3	0.6	-13	13	20%	-7.6
Cc1ccccc1NC(=O)c1ccc(F)c(S(=O)(=O)NCC2CCCO2)c1 (stereo not drawn)	0	-0.9	-10	-1	0.1%	-2.2
COc1ccc([C@H]2CC(=O)C[C@@H](CCn3cc(CCc4ccccc4)nn3)O2)cc1	-3	-1.0	.	4	-1.1%	.
O=C(c1cccs1)N1CCN=C1SCc1ccccc1F	-3	-0.5	-4	-1	-0.3%	-1.3
CCc1ccc(C(=O)NNC(=O)[C@H](C)NC(=O)c2ccco2)cc1	4	-0.5	-3	0	-0.3%	-3.3
CCOc1ccc(C2CC(c3cccc(C)c3)n3ncnc3N2)cc1 (stereo not drawn)	-4	1.3	-4	-8	-2.9%	1.3
COc1cc(OC)c(NC(C)C(=O)N2CCCC2)cc1Cl (stereo not drawn)	-17	-0.3	-10	-13	1.3%	10
CC(C)NC(=S)Nc1cccc2cnccc12	6	-0.5	-1	6	0.1%	-5.6
CCOc1ccc(NC(=O)C(Cc2ccccc2)N2C(=O)c3cccc4cccc(c34)C2=O)cc1 (stereo not drawn)	3	61*	7	17	?	1.6
CCCc1cc(NCc2ccccn2)n2c(nc3ccccc32)c1C#N	-18	0.5	0	-23	13%	-2.1
Nn1c(SCC(=O)Nc2ccc3c(c2)OCO3)nnc1C1CC1	1	2.4	1	-3	0.5%	0.5
FC(F)(F)C12CC(c3ccccc3)=NCCN1CCN2 (stereo not drawn)	?	-0.2	-9	?	-2.4%	-0.4
Cc1ccc(-c2cc(-c3ccccc3)c(C#N)c(N)n2)o1	8	0.5	17	18	3.6%	6.7
O=C(NC(C(=O)N/N=C/c1c2ccccc2cc2ccccc12)c1n[nH]c(=O)c2ccccc12)c1ccccc1 (stereo not drawn)	-22	-0.2	13	-3	2.3%	-1.9
CN(C)S(=O)(=O)c1cccc(NC(=O)c2cccc(S(=O)(=O)N3CCCCCC3)c2)c1	-25	0.7	1	-8	4.0%	-1.3
CCN(CC)c1nc(C)nc2c1cnn2CCc1ccccc1	9	1.4	9	0	1.9%	-5.1
O=C(NCC(c1ccco1)N1CCc2ccccc21)C(=O)Nc1ccccc1F (stereo not drawn)	-6	0.0	2	-24	?	-7.0
COc1ccc(OC(C)C(=O)Nc2ccccc2F)cc1 (stereo not drawn)	10	0.6	-7	6	-1.1%	-0.9
Cc1ccc(C(=O)N/C(=C\c2ccco2)C(=O)NCCCn2ccnc2)cc1	-18	-0.2	-4	-77*	0.3%	-5.4
CCOc1ccc(OCC(=O)c2c(O)c3ccccc3oc2=O)cc1	-10	0.9	-5	6	-1.3%	-1.0
CN(C1CCCCC1)S(=O)(=O)c1cc2c(cc1Cl)NC(=O)CO2	1	-1.1	2	0	?	3.4
CCc1c(C)c2cc(Cl)c(O)c(CN(CC)CC)c2oc1=O	8	0.0	-1	3	6.5%[38.3 µM]	-1.6
COc1ccc(C(=O)N2CCN=C2SCc2cccnc2)c(OC)c1	-9	1.2	-3	1	0.3%	15

Of the compounds above, these have a thiophene ring, fused or not:
SMILES	CtBP-E1A blk	TRPML1 ag	D2 potentiator	Six1-Eya2 inh	PINK1 expr mod	D2 agonist
O=C(O)CCCn1c(=S)[nH]c2c(sc3ccc([N+](=O)[O-])cc32)c1=O	-6	1.0	-12	-10	0.0%	-1.2
O=C(c1cccs1)N1CCN=C1SCc1ccccc1F	-3	-0.5	-4	-1	-0.3%	-1.3
